Bioassay records from PubChem BioAssay.
PV pol inh = poliovirus RNA polymerase inhibition; P03300; poliovirus polymerase elongation, fluorescence polarization; active compounds read low; 150,000 tested, 0.66% active; % elongation, % (compound at 16.7 µg/mL); in the data active means % elongation below about 90%; further: some results filed as inactive read as strong as hits
Target sequence (P03300 1749-2209 limits assumed): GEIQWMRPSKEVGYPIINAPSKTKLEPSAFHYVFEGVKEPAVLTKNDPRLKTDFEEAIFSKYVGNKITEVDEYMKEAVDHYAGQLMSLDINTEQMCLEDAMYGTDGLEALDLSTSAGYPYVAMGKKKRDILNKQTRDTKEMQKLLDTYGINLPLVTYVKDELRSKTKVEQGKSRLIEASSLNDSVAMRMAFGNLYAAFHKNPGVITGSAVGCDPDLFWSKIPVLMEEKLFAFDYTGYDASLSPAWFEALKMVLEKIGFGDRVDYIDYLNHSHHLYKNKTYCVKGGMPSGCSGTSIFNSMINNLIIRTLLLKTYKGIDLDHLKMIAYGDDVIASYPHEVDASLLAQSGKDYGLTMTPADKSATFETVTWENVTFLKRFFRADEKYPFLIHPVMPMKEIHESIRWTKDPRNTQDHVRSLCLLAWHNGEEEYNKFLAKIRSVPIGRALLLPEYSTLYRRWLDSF
MbtI inh = inhibitors of Mycobacterium tuberculosis siderophore enzyme MbtI; AID 493033; inhibition, %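 (about 17 µg/mL by stock and volumes)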; 100,000 tested, 0.89% active; purified MbtI enzyme, fluorescence intensity read-out;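 active means above 50% in both replicates, above 80% if mildly self-fluorescent; inactive means the rest, strongly fluorescent compounds included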;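 further: 0% = mean of negative and 100% = mean of positive controls; one replicate is shown; some compounds called inactive have numbers as strong as hits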
Target sequence (P9WFX0 whole entry, looked up): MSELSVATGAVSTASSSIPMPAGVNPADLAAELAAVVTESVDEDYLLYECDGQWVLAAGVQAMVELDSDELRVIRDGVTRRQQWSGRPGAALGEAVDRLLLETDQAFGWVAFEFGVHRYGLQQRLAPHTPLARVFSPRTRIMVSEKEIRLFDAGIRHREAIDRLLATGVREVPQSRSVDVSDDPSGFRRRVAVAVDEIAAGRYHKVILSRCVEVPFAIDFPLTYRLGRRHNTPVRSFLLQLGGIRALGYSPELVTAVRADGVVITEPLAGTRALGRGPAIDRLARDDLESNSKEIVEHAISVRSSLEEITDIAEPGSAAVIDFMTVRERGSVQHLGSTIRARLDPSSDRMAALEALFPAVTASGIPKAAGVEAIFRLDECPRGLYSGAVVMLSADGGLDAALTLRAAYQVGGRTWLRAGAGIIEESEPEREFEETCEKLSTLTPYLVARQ
MenB inh = inhibitors of Mycobacterium tuberculosis MenB enzyme | 100,000 tested, 0.43% active | MenB enzyme assay, absorbance read-out; some hits fall short of the stated cut | P9WNP5 | inhibition, %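 (about 12 µg/mL by stock and volumes)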;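 active means mean of two replicates above 30%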;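 further: 0% = no compound and 100% = wells with inactive enzyme; the first replicate is given; strong numbers were not always called active; inactives centre near -10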
PV pol inh intensity = second read-out of PV pol inh, no call of its own (marks repeat the call); % elongation; measured here: total intensity read-out; formula for this scale not given here;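 total fluorescence in place of polarization; lower means less elongation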
Numbers without * were called inactive; / = not tested or not shown; & = joins results of further samples.

SMILES | PV pol inh | PV pol inh intensity | MbtI inh | MenB inh
O=C1OC(c2ccc(F)cc2)=C/C1=C/c1ccc(O)cc1 | 102.0 | 103.0 | 2.3 | -36.1
CCN1C(=O)/C(=C\C=C\c2ccccc2Cl)SC1=S | 102.0 | 105.0 | 29.1 | -14.2
O=C(Nc1c(C(=O)Nc2ccc(F)cc2)oc2ccccc12)c1ccccc1 | 103.0 | 106.0 | 62.3 | -48.3
CCOc1ccc2nc(NCCNC(=O)NCc3ccccc3)c(C#N)cc2c1 | 101.0 | 100.0 | -9.2 | -35.8
CCN1CCN(Cc2ccc(NC(=O)C3CCCN(S(=O)(=O)N4CCC5(CC4)OCCO5)C3)cc2)CC1 (stereo not given) | 101.0 | 101.0 | -27.6 | -2.6
CCOC(=O)c1cc(-c2ccc(Cl)cc2)nc2c1c(=O)[nH]c(=O)n2CC(C)C | 103.0 | 111.0 | 13.5 | -0.6
CCc1ccc(C(=O)COC(=O)c2n[nH]c3ccccc23)cc1 | 101.0 | 101.0 | -15.8 | -20.7
CCOc1ccc(C(=O)C(CC(CN2CCOCC2)C(=O)c2ccc(OCC)cc2)CN2CCOCC2)cc1 (stereo not given) | 102.0 | 102.0 | 23.5 | -18.8
O=C(CSc1ncn[nH]1)n1c2ccccc2c2ccccc21 | 101.0 | 101.0 | -15.8 | -37.9
CCN(CC)C(=O)[n+]1ccc(OC)cc1 | 102.0 | 107.0 | -6.2 | -15.7
CN(Cc1ccco1)C(=O)CN1C(=O)/C(=C\c2ccc(C(F)(F)F)cc2)Sc2ccccc21 | 99.0 | 97.0 | 1.3 | -17.4
Cc1cccc(CS(=O)(=O)Cc2ccc(C(=O)NCCCN3CCCC3)o2)c1 | 100.0 | 102.0 | -10.0 | 6.5
O=S1(=O)CCC(Nc2nc(CN3CCCCC3)nc3sc4c(c23)CCC4)C1 (stereo not given) | 97.0 | 100.0 | 11.4 | -4.5
COc1ccc(OC)c(C2/C(=C(/O)c3ccc(C)cc3)C(=O)C(=O)N2c2cccnc2)c1 (stereo not given) | 103.0 | 101.0 | -3.3 | 7.6
CC(C)(C)c1ccc(/C=C/C(=O)NC2CCS(=O)(=O)C2)cc1 (stereo not given) | 104.0 | 102.0 | / | -10.9

4 compounds from above, showing only PV pol inh and MenB inh.
SMILES	PV pol inh	MenB inh
CCN1C(=O)/C(=C\C=C\c2ccccc2Cl)SC1=S	102.0	-14.2
O=C(Nc1c(C(=O)Nc2ccc(F)cc2)oc2ccccc12)c1ccccc1	103.0	-48.3
CCOc1ccc2nc(NCCNC(=O)NCc3ccccc3)c(C#N)cc2c1	101.0	-35.8
CCN1CCN(Cc2ccc(NC(=O)C3CCCN(S(=O)(=O)N4CCC5(CC4)OCCO5)C3)cc2)CC1 (stereo not given)	101.0	-2.6

Further structures.
SMILES | PV pol inh | PV pol inh intensity | MbtI inh | MenB inh
Cc1ccc2nc(NC(=O)CSc3cn(C)c4ccccc34)sc2c1 | 99.0 | 105.0 | 15.9 | -5.8
O=S(=O)(c1cccc(-c2nc3ccccc3s2)c1)N1CCOCC1 | 100.0 | 104.0 | -16.6 | -8.8
CCN(CC)C(=O)c1ccc(N(Cc2ccccc2Cl)S(C)(=O)=O)cc1 | 103.0 | 97.0 | 16.1 | 2.3
Cc1cc(C)c2c(n1)sc1c(Sc3nnc(-c4ccncc4)o3)ncnc12 | 102.0 | 103.0 | -12.8 | 12.3
Cc1ccc(-c2noc(COC(=O)c3ccccc3C(F)(F)F)n2)cc1 | 104.0 | 103.0 | -13.0 | -23.6
CC1CN(c2ccccc2OC(=O)Nc2ccc(OC(F)(F)F)cc2)CC(C)O1 (stereo not given) | 103.0 | 106.0 | -1.4 | 5.9
Cc1ccc(SCc2cc(=O)[nH]c(Nc3nc(C)c4ccccc4n3)n2)cc1 | 104.0 | 110.0 | 5.5 | -18.6
Nc1cccc(Cl)c1N1CCOCC1 | 101.0 | 99.0 | 0.5 | 3.0
CCCNC(=O)c1cc(C)nc2c1c(C)nn2-c1ccc(C)cc1 | 101.0 | 102.0 | -13.2 | -12.7
CCC(=O)Nc1ccc(S(=O)(=O)N2CCOCC2)cc1 | 100.0 | 102.0 | 6.7 | -5.3
CN(C)C(=O)Oc1ccc2nnc3ccnn3c2c1 | 112.0 | 134.0 | -2.8 | -53.1
COc1cc(CN(CC2CCCO2)C(=O)c2cccs2)cc(OC)c1OC (stereo not given) | 102.0 | 102.0 | -7.2 | -0.8
CCCCC/C=C\C/C=C\C/C=C\C/C=C\CCCC(=O)O[C@@H](CO)COCCCCCCCCCCCCCCCC | 102.0&101.0 | 104.0&104.0 | -21.7 | 0.1
CCOc1csc2nc(C)cc(C)c12 | 102.0 | 102.0 | -8.4 | 9.5
CC(=O)Oc1ccccc1OC(C)c1nn(C(C)=O)c2ccccc12 (stereo not given) | 108.0 | 110.0 | / | -26.4
CN1C(=O)CC(C(=O)O)SC1=Nc1cccc(F)c1 (stereo not given) | 101.0 | 102.0 | 1.6 | -13.1
O=C(CSC1=NCCN1)NC(c1ccccc1)c1ccccc1 | 101.0 | 100.0 | 4.3 | /
O=C(Nc1nc(CSc2nc3ccccc3s2)cs1)C1CC1 | 83.0* | 89.0* | 53.2 | -65.3
CC1(c2ccccc2)CC(C)(C)N(C(=O)C(F)(F)F)c2ccccc21 (stereo not given) | 103.0 | 106.0 | -4.2 | -0.9
COCCCn1c(=N)c(C(=O)N2CCCCC2)cc2c(=O)n3cccc(C)c3nc21 | 98.0 | 101.0 | 116.9 | -109.4
C[C@]12C=C(C#N)C[C@@]1(C)C=C(C#N)C2 | 104.0 | 105.0 | -11.8 | -23.0
COc1cc(CNCCc2c[nH]c3ccccc23)cc(OC)c1O | 103.0 | 103.0 | 11.6 | -11.9
O=c1[nH]nc(-c2ccccc2)c2ccccc12 | 100.0 | 99.0 | / | -16.9
O=C(NC1CCCCC1)NC1CCN(Cc2nnnn2Cc2ccc3c(c2)OCO3)CC1 | 104.0 | 101.0 | -10.1 | -3.1
CCCc1nnc(N(Cc2ccc(Cl)cc2)C(=O)c2ccc(C)cc2)s1 | 106.0 | 111.0 | / | -10.7
CCC1CCCCN1CC(=O)c1ccco1 (stereo not given) | 114.0 | 124.0 | -4.7 | -13.0
O=C(CC(CC(=O)c1ccc(Br)cc1)c1cccnc1)c1ccc(Br)cc1 | 102.0 | 97.0 | 0.0 | 0.8
COc1ccccc1-c1cc(-c2ccc(O)cc2)nc(N)c1C#N | 101.0 | 101.0 | -240.3 | -26.7
O=C(N1CCCCC1)N1c2ccccc2Sc2ccccc21 | 104.0 | 98.0 | -212.8 | -10.4
O=C(O)Cc1ccc(S(=O)(=O)N2CCOCC2)s1 | 101.0 | 108.0 | -5.5 | -1.0

Entries from the list above that have a cyano group (3):
SMILES | PV pol inh | PV pol inh intensity | MbtI inh | MenB inh
CCOc1ccc2nc(NCCNC(=O)NCc3ccccc3)c(C#N)cc2c1 | 101.0 | 100.0 | -9.2 | -35.8
C[C@]12C=C(C#N)C[C@@]1(C)C=C(C#N)C2 | 104.0 | 105.0 | -11.8 | -23.0
COc1ccccc1-c1cc(-c2ccc(O)cc2)nc(N)c1C#N | 101.0 | 101.0 | -240.3 | -26.7

Additional entries follow:
SMILES | PV pol inh | PV pol inh intensity | MbtI inh | MenB inh
O=C(COc1ccc2ccccc2c1)Oc1ccc(C(=O)c2ccccc2)cc1 | 98.0 | 103.0 | 13.5 | -6.8
CCOC(=O)c1cnn(-c2nc3ccccc3s2)c1/N=C/N(C)C | 101.0 | 102.0 | -2.3 | 5.4
CC(Cc1cccs1)NC(=O)NC1CCCCC1 (stereo not given) | 112.0 | 111.0 | 9.9 | -18.2
Cc1cc(C(=O)COc2ccc3ccc(=O)oc3c2)c(C)n1C | 102.0 | 106.0 | 164.4 | -3.2
CC(C)CSc1ncnc2scc(-c3ccccc3)c12 | 103.0 | 112.0 | / | -5.3
CCOC(=O)c1c(C)oc2c1c1c(c3ccccc32)OCN(C2CC(C)(C)NC(C)(C)C2)C1 | 106.0 | 102.0 | 26.1 | -2.4
O=S(=O)(/C=C/c1ccccc1)N1CCN(Cc2cc3c(cc2O)CCC3)CC1 | 97.0 | 96.0 | -8.7 | -2.9
CC(CC(=O)C1C(C)C=CCC1(C)C)Nc1ccccc1 (stereo not given) | 103.0 | 107.0 | / | -9.1
COc1ccc(OC)c(/C=c2\sc3nc4ccccc4n3c2=O)c1 | 72.0 | 139.0 | -3.5 | 12.5
N#Cc1c(Sc2nnnn2-c2ccccc2)nc(CCc2ccccc2)c2c1CCCC2 | 101.0 | 110.0 | 0.2 | 1.9
OC(CC#CCN1CCCC1)(c1ccccc1)C1CCCC1 (stereo not given) | 103.0 | 104.0 | / | -19.7
N#CC1=C(N)Oc2c(oc(CO)cc2=O)C12C(=O)NC1C=CC=CC12 (stereo not given) | 104.0 | 101.0 | -3.9 | -2.1
NC1c2ccccc2-c2ccccc21 | 100.0 | 94.0 | 5.7 | -38.3
COc1ccccc1C(c1c(O)[nH]c(=S)[nH]c1=O)N(Cc1ccccc1)C(C)C (stereo not given) | 102.0 | 104.0 | 50.1 | -74.9
CC1CCc2[nH]nc(C(=O)O)c2C1 (stereo not given) | 100.0&101.0 | 101.0&100.0 | -1.8&-7.9 | -21.4&-54.4
Cn1c(=O)n(C)c2cc(C(O)COc3ccc(CNC(C)(C)C)cc3)ccc21 (stereo not given) | 100.0 | 102.0 | -13.7 | 21.5
O=C(CS(=O)(=O)c1ccccc1)Nc1cccnc1 | 105.0 | 102.0 | -5.7 | -37.1
CC(=O)Nc1cc2c(cc1C(=O)c1ccc(Br)cc1)OCCO2 | 104.0 | 115.0 | / | -1.9
COc1ccc(C(=O)COC(=O)c2nn(C)cc2Cl)cc1 | 101.0 | 103.0 | 2.1 | -6.7
Cc1cccc(C(=O)N2CCOCC2)c1 | 102.0 | 102.0 | / | -1.5
Cc1ccc(C(=O)C2CN3CCC2CC3)cc1 (stereo not given) | 102.0 | 102.0 | -14.5 | 6.2
CC(=O)OC1C(c2ccccc2)=NN(C(C)=O)C1c1ccccc1 (stereo not given) | 103.0 | 106.0 | -69.4 | -4.0
CCN(CC)C(=O)CSc1nc2sccc2c(=O)n1-c1ccccc1 | 112.0 | 114.0 | 3.6 | 2.0
COc1ccc(C2=NN(C(=O)Cn3cc(C(F)(F)F)ccc3=O)C(c3ccco3)C2)cc1 (stereo not given) | 105.0 | 105.0 | -180.2 | -13.6
O=c1c(Oc2ccccc2)coc2cc(OCc3ccccc3)ccc12 | 105.0 | 111.0 | / | 3.1
COc1cccc(NC(=O)C2(C#N)Cc3ccccc3N3CCCC32)c1 (stereo not given) | 99.0 | 217.0 | -3.1 | -6.6
O=C(Nc1ccc2c(c1)COC2=O)c1cccc(Cl)c1 | 101.0 | 103.0 | 0.6 | -4.9
COc1ccccc1CCN=Cc1ccnc(SCc2ccc(Cl)cc2Cl)n1 | 104.0 | 114.0 | -5.7 | -2.3
O=C(NC1CCCC1)N1CCC2(CC1)Oc1ccccc1C(=O)N2Cc1ccc(F)cc1 | 104.0 | 104.0 | -4.7 | -21.5
O=C(CSCc1cnn(-c2ccccc2)c1-n1cccc1)N1CCC(N2CCCCC2)CC1 | 102.0 | 100.0 | -7.8 | -10.8

Looked up by structure from above, four records:
SMILES | PV pol inh | PV pol inh intensity | MbtI inh | MenB inh
O=C(NC1CCCC1)N1CCC2(CC1)Oc1ccccc1C(=O)N2Cc1ccc(F)cc1 | 104.0 | 104.0 | -4.7 | -21.5
O=c1c(Oc2ccccc2)coc2cc(OCc3ccccc3)ccc12 | 105.0 | 111.0 | / | 3.1
CC(=O)OC1C(c2ccccc2)=NN(C(C)=O)C1c1ccccc1 (stereo not given) | 103.0 | 106.0 | -69.4 | -4.0
COc1cccc(NC(=O)C2(C#N)Cc3ccccc3N3CCCC32)c1 (stereo not given) | 99.0 | 217.0 | -3.1 | -6.6

(list continues)
SMILES | PV pol inh | PV pol inh intensity | MbtI inh | MenB inh
C=C(C)c1cccc(C(C)(C)NC(=O)NCc2cccnc2)c1 | 101.0 | 99.0 | 4.0 | -45.2
CCOC(=O)c1c(-c2ccccc2)n2c3c(cccc13)SCC2 | 102.0 | 101.0 | -8.3 | -20.3
O=C(CSc1ncnc2ccccc12)Nc1cccc(F)c1 | 101.0 | 97.0 | 4.2 | -0.1
COC(=O)CNC(=O)c1cc(=O)c2ccccc2o1 | 107.0 | 112.0 | -3.1 | -3.1
O=c1c2c(nc3[nH]ncn13)CCN(Cc1ccccc1)C2 | 100.0 | 104.0 | 1.0 | -31.5
CCOc1ccccc1OCC(=O)OC1CCOC1=O (stereo not given) | 106.0 | 109.0 | 18.5 | 12.5
O=C(NC(Cc1ccccc1)C(=O)OCc1ccccc1)c1cccs1 (stereo not given) | 104.0 | 106.0 | -4.8 | /
Cc1noc2ncnc(N3CCCC(C(=O)NCCCN4CCCC4=O)C3)c12 (stereo not given) | 103.0 | 104.0 | -6.1 | -22.9
COC(=O)C1(C(F)(F)F)C2C=CC(C2)N1S(=O)(=O)c1ccccc1 (stereo not given) | 101.0 | 101.0 | -7.9 | -16.4
O=C(Nc1cccc(C(F)(F)F)c1)c1cc2ccccc2o1 | 102.0 | 102.0 | 10.9 | -12.4
O=C(NCc1cccn1Cc1ccccc1)Nc1ccccc1 | 99.0 | 104.0 | -9.7 | 11.5
CCN(C(=O)CN(C)C1CCCCC1)c1c(N)n(Cc2ccccc2)c(=O)[nH]c1=O | 111.0 | 111.0 | -8.8 | -8.5
CCCC(=O)NCc1cc(-c2nn(C)c(=O)c3ccccc23)ccc1C | 103.0 | 101.0 | 16.1 | -15.1
Cc1cccc2cc(C=C(C#N)C#N)c(Cl)nc12 | 84.0 | 131.0 | 3.0 | -12.5
